T cruzi repl = T. cruzi replication inhibition; AID 1885; inhibition, % (no concentration beside the values); T. cruzi beta-gal in NIH3T3, luminescence, 90 h; 1.4% of 300,000 active;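 active = mean inhibition across valid replicates above about 55%, limit read from the data; inconclusive = mean below that limit but half or more replicates reach it; inactive = mean below it, under half of replicates reach it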;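 note: signal also drops with host cell toxicity which is not excluded here; 0% = plate median of DMSO wells and 100% = zero luminescence signal; higher percent means less beta-gal luminescence so fewer parasites; stock transfer was 50 nL into about 50 µL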
Ecoli rRNA inh = selective bacterial rRNA inhibition in E. coli. E. coli WT GFP vs humanized-ribosome RFP mutants, fluorescence, 24 h; active compounds read low; DMSO median 0, no signal -100. GFP signal change (wild-type ribosome), % (no concentration beside the values). 1.6% of 350,000 active. AID 720706;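 active = significant combined selectivity score with lowered wild-type GFP, culture density cut under 30%, mutant RFP and density less affected; inactive = any of these conditions unmet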; note: one replicate is shown; some compounds called inactive have numbers as strong as hits
A1 inh = inhibitors of the anti-apoptotic protein A1, read as caspase activation; MEF A1-2A-BIM cells, Caspase-Glo 3/7 luminescence, 3 h; percent of clofoctol response, vehicle zero; caspase activation, % (no concentration beside the values); 0.066% of 330,000 active;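 active = over half of replicate activation scores above 10%, or exactly half above 10 with the replicate mean above 10; inconclusive = replicate mean below 10 yet half the replicates above 10; inactive = over half of replicates below 10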;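 note: wells of about 30 µL received 50 nL stock; many hits fall short of the cut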
E coli growth = blocks Escherichia coli growth. OD600, 23 h; active compounds read low. OD600 absorbance (no concentration beside the values). 0.21% of 330,000 active. AID 1053175;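 active = OD600 absorbance below the run mean of sample wells minus 3.6 SD, in any replicate, cut at about 0.56 in these data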;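 note: stock transfer was 300 nL into about 60 µL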
FGF22 binding = binders of recombinant human FGF22 by thermal shift | AID 651658 | SYPRO orange fluorescence; percent of sucrose octasulfate shift, DMSO zero | calls only at 9.99 µM | 1.5% of 340,000 active;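 active = melting point raised past a set limit in the mean and every replicate; inconclusive = no clear call; three in four hits are not shown here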
Target sequence (Q9HCT0 whole entry, looked up): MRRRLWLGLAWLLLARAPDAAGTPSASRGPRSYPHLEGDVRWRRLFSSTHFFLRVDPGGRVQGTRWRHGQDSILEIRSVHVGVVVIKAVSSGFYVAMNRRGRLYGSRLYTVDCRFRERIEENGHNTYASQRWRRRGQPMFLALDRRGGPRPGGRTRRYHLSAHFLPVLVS
AF4-AF9 inh = inhibitors of human MLL-AF4/AF9 interaction; 0.47% of 350,000 active; AID 651704; inhibition, % at 10 µM; AlphaScreen, biotin-AF4 peptide binding to FLAG-AF9; P42568;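 active = every replicate reaching a set inhibition limit, whatever the replicate mean, cut at about 25% in these data; inconclusive = mean inhibition reaches that limit but some replicates miss it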;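 note: 0% = plate neutral control median and 100% = total signal loss; the record names both 10 and 1 µM as test concentration; the first replicate is given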
Target sequence (P42568 whole entry, looked up): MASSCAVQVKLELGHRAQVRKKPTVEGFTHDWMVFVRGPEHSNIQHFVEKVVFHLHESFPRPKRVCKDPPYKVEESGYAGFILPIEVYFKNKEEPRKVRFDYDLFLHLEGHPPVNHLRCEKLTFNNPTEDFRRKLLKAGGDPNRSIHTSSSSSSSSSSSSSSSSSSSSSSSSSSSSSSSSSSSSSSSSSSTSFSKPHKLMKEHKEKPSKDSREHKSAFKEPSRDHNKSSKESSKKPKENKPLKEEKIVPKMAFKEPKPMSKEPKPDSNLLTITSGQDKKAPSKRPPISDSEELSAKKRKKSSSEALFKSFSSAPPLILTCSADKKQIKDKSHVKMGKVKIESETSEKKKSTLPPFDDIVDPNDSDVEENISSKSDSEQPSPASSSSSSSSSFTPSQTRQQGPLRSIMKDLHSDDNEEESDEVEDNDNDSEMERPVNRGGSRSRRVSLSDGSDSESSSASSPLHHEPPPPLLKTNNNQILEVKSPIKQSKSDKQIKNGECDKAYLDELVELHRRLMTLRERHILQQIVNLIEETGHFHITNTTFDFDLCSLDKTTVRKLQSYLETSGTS
Beta apoptosis = blocks beta cell apoptosis; INS-1E cytokine-induced death, ATP luminescence, 48 h; percent of positive-control rescue, neutral wells zero; protection from apoptosis, % (concentration not given with the values); 0.8% of 300,000 active; AID 435005;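 active = all replicates at 75% or more, or half of them and the mean; inconclusive = half reach 75% but not the mean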;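 note: 0% = cytokine-treated negative control wells and 100% = positive control rescue; higher means more ATP so stronger rescue from cytokine killing; wells of about 40 µL received 100 nL stock; the first replicate is given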
UCH37 inh = blocks the human deubiquitinase UCH37. Q9Y5K5. purified proteasome/UCH37, Ub-AMC cleavage fluorescence. inhibition, % (concentration not given with the values). 0.33% of 330,000 active;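 active = mean of two replicates above 20%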;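 note: 0% = compound-free wells with enzyme and 100% = wells lacking proteasome; stock transfer was 100 nL into about 20 µL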
Target sequence (Q9Y5K5 whole entry, looked up): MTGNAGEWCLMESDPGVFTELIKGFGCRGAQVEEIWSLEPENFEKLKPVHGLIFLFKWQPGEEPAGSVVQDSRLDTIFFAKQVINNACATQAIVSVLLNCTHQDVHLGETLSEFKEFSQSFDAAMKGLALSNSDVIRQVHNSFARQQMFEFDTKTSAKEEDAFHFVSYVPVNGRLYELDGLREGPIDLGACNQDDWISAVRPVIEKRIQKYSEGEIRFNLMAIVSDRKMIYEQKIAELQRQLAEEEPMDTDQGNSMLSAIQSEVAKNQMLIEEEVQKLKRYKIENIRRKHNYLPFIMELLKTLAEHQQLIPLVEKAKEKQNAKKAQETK
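Test system – human UCH37 enzyme supplied as purified proteasome complex · Incubation – 30 min preincubation with enzyme, 25 min cleavage at room temperature · Detection – AMC fluorescence from Ub-AMC cleavage, excitation 355 nm, emission 460 nm · Benchmarks – no-proteasome wells (full inhibition) and compound-free wells (no inhibition)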
Ecoli rRNA inh OD600 = recorded beside Ecoli rRNA inh, whose call it bears; OD600 change, %; measured here: OD600 growth;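 optical density of the mix in the first replicate; 0 = DMSO median and -100 = no signal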
Ecoli rRNA inh RFP = second read-out of Ecoli rRNA inh, no call of its own (marks repeat the call); RFP signal change, %; measured here: RFP humanized mutant strains;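 first replicate; 0 = DMSO median and -100 = no signal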
The depositor's hits bear a star; i = inactive; ? = inconclusive; . = no result given; + = active, no number.

SMILES | T cruzi repl | Ecoli rRNA inh | Ecoli rRNA inh OD600 | Ecoli rRNA inh RFP | A1 inh | E coli growth | FGF22 binding | AF4-AF9 inh | Beta apoptosis | UCH37 inh
CCN1C(=O)c2ccccc2Sc2ccc(C(=O)NCCCN3CCCCC3)cc21 | 43 | 14 | 7 | -0.6 | -0.5 | 0.69 | i | 5.8 | 1 | 4.8
CCOC(=O)c1sc(C)c(C(=O)NCC(C)(C)CN(C)C)c1N | 0 | . | . | . | 0.0 | 0.73 | . | . | -9 | -21
N#CCCCCN1CCCC1 | -1 | 23 | 28 | 5.3 | ? | . | i | -1.8 | -8 | .
CCOC(=O)CP(=O)(c1ccccc1)c1ccccc1 | -7 | . | . | . | -1.1 | 0.66 | . | . | -9 | 4.7
C/C(=N/NC(=O)CNC(=O)CCc1ccccc1)c1ccc(Cl)cc1 | 7 | 10 | 1 | -1.1 | 0.0 | . | i | . | -2 | .
Cc1ccc(S(=O)(=O)N2CCN(Cc3cc(C(C)(C)C)ccc3O)CC2)cc1 | 24 | -13 | -14 | -2.6 | 0.7 | 0.71 | i | -11 | -1 | 4.1
O=C(COc1ccccc1Cl)Nc1nnc(S(=O)(=O)N2CCCC2)s1 | 7 | 0 | 8 | 7.9 | 0.1 | 0.77 | i | -3.0 | -1 | 6.8
COc1ccc(C(=O)Nc2nc(CC(=O)NCCc3cccc(OC)c3)cs2)cc1 | 19 | -17 | -16 | 3.5 | -1.9 | 0.66 | i | -2.1 | 4 | 1.6
O=C(Nc1ccc(N2CCCC2)cc1)c1ccccc1[N+](=O)[O-] | -8 | 0 | 6 | 0.7 | -0.7 | 0.69 | i | 10 | -1 | 3.9
O=C(O)CC(C(=O)OCC1CCCO1)N1CCOCC1 (centres undefined) | . | . | . | . | 0.0 | 0.78 | . | . | -1 | 0.2
Fc1ccc(NC(=S)N2CCc3ccccc32)cc1 | -4 | -4 | 3 | -0.6 | -0.1 | 0.7 | i | -3.0 | 4 | 4.4
CCCCCCn1ccc(=N)cc1 | . | . | . | . | -0.6 | 0.77 | . | . | 120* | 6.6
CCCNC(=O)c1ccc2c(=O)c(O)c(-c3ccc(F)cc3)[nH]c2c1 | -15 | . | . | . | -1.3 | 0.67 | . | . | 14 | -27
Cc1nc(NC(C)c2ccccc2)c2c3c(sc2n1)CCC3 (centres undefined) | -3 | . | . | . | -0.2 | 0.64 | . | . | -6 | 1.1
Cc1ccc(OCCCn2c(CO)nc3ccccc32)cc1 | -2 | . | . | . | 0.9 | 0.65 | . | . | -1 | 2.1
COc1cc(C(CCN2CCN(c3ccccc3)CC2)c2c(OC)cc(OC)c3c(C)cc(=O)oc23)cc(OC)c1OC (centres undefined) | 32 | 11 | 0 | 18 | -1.2 | 0.71 | i | 16 | 1 | 0.2
CCOc1ccc(S(=O)(=O)N2CCN(C(=O)c3ccco3)CC2)cc1 | -9 | 4 | 0 | 2.0 | -0.3 | 0.62 | i | 1.0 | 5 | 3.2
O=C(/C=C/c1ccc(Cl)c(Cl)c1)N1CCOCC1 | 2 | 7 | 15 | 1.4 | -0.1 | 0.69 | i | -1.2 | . | 4.0
CC(=O)Nc1cc(NC(C)=O)cc(C(=O)OCC(=O)Nc2ccc(S(=O)(=O)NC3=NCCCCC3)cc2)c1 | 11 | 13 | 21 | 1.3 | -0.2 | 0.72 | i | 3.0 | -3 | 1.2
Fc1cc(Br)ccc1NC(=S)NCCc1ccccc1 | -6 | -50* | -31* | -17* | 0.5 | 0.59 | + | 0.3 | -7 | 2.6
O=P(O)(O)c1ccccc1OCCOCCOCCOCCOc1ccccc1P(=O)(O)O | -3 | 5 | 7 | -2.2 | 0.0 | 0.7 | i | -10.0 | -5 | 3.1
COc1ccc(/C=N/NC(=O)c2c(-c3ccccc3)noc2C)cc1[N+](=O)[O-] | -2 | -2 | -21 | 1.3 | -0.4 | . | i | 3.8 | 6 | .
O=C(O)c1c2c(nc3ccc(S(=O)(=O)N4CCC(C(=O)NC5CCCCCC5)CC4)cc13)CCCC2 | 10 | 16 | 15 | 9.4 | -0.7 | 0.72 | . | 0.6 | 2 | 2.1
FC(F)(F)c1cc(Nc2ccccc2)nc(-c2ccccn2)n1 | -6 | -26 | -48 | -6.3 | 0.0 | 0.66 | i | ? | 7 | 2.6
Cc1cccc(CC(=O)Nc2ccc(C(=O)N3CCOCC3)cc2)c1 | -17 | 13 | 14 | 2.1 | -3.5 | 0.7 | i | -5.8 | -5 | 1.2
O=C(Cc1cc(=O)[nH]c(=O)[nH]1)N1CCN(C(=O)c2ccco2)CC1 | -11 | 8 | 4 | -1.5 | 1.3 | 0.71 | i | 3.3 | -1 | 7.3
COc1ccc(C(C)(C)C)cc1S(=O)(=O)N1CCC(C(N)=O)CC1 | -15 | . | . | . | -0.5 | 0.67 | . | . | -5 | -0.8
OC(CNC1CCCCC1)COCCOc1ccc(Br)cc1 (centres undefined) | 36 | . | . | . | -0.1 | 0.69 | i | 2.0 | 106* | 3.7
CNS(=O)(=O)c1cc(Cl)ccc1Sc1ccccc1C(=O)O | -9 | -10 | -8 | -0.6 | -0.1 | 0.67 | i | 1.6 | 1 | 1.8
COc1ccc(-c2csc(N3C(=O)CNC3=S)n2)cc1 | -18 | . | . | . | -6.2 | 0.72 | . | . | -8 | -2.2

Five entries drawn at random from those above, as already listed:
SMILES | T cruzi repl | Ecoli rRNA inh | Ecoli rRNA inh OD600 | Ecoli rRNA inh RFP | A1 inh | E coli growth | FGF22 binding | AF4-AF9 inh | Beta apoptosis | UCH37 inh
COc1ccc(-c2csc(N3C(=O)CNC3=S)n2)cc1 | -18 | . | . | . | -6.2 | 0.72 | . | . | -8 | -2.2
O=C(O)c1c2c(nc3ccc(S(=O)(=O)N4CCC(C(=O)NC5CCCCCC5)CC4)cc13)CCCC2 | 10 | 16 | 15 | 9.4 | -0.7 | 0.72 | . | 0.6 | 2 | 2.1
COc1ccc(C(C)(C)C)cc1S(=O)(=O)N1CCC(C(N)=O)CC1 | -15 | . | . | . | -0.5 | 0.67 | . | . | -5 | -0.8
CNS(=O)(=O)c1cc(Cl)ccc1Sc1ccccc1C(=O)O | -9 | -10 | -8 | -0.6 | -0.1 | 0.67 | i | 1.6 | 1 | 1.8
Fc1cc(Br)ccc1NC(=S)NCCc1ccccc1 | -6 | -50* | -31* | -17* | 0.5 | 0.59 | + | 0.3 | -7 | 2.6

(further entries)
SMILES | T cruzi repl | Ecoli rRNA inh | Ecoli rRNA inh OD600 | Ecoli rRNA inh RFP | A1 inh | E coli growth | FGF22 binding | AF4-AF9 inh | Beta apoptosis | UCH37 inh
CCN1CCN(c2ccc(NC(=O)c3cccc(N4CCCC4=O)c3)cc2)CC1 | 5 | 4 | -1 | 0.0 | 0.7 | 0.67 | . | 3.0 | -3 | 2.3
COc1ccc(NC(=S)N(CCCOC(C)C)C2CCN(C(C)=O)CC2)cc1Cl | 5 | 3 | -7 | 1.6 | -0.1 | 0.66 | i | 0.1 | -3 | 0.7
Cc1ccc(S(=O)(=O)C(F)(F)F)cc1NC(=O)c1cccnc1 | -2 | . | . | . | -0.1 | 0.69 | . | . | 0 | 0.0
Cc1[nH]c2ccccc2c1C(=O)CSc1ccc(Cl)cc1 | 13 | 32 | 26 | 2.0 | -0.6 | 0.69 | i | -0.2 | -7 | -1.2
CCC(=O)N1CCc2cc(S(=O)(=O)NCCC(=O)Nc3ccc(OC)cc3)ccc21 | -3 | 4 | 2 | -2.8 | 0.2 | 0.73 | i | -2.2 | 1 | -1.6
Fc1ccc(Cn2c(SCc3ccc(F)c(F)c3)nnc2C(F)(F)F)cc1 | 8 | . | . | . | -0.3 | 0.68 | . | . | -4 | 4.2
CCOc1cc(S(=O)(=O)N2CCCCC2)ccc1Cl | -18 | . | . | . | 0.5 | 0.66 | . | . | 4 | 0.9
Nc1cc(Cl)ccc1N1CCCC1 | -3 | 10 | 9 | 3.3 | 0.8 | 0.67 | i | -7.9 | 5 | 3.0
CN(Cc1cnn(C)c1)C(=O)C1CCC(=O)N(C2CCCCCC2)C1 (centres undefined) | -6 | 9 | 21 | 2.9 | -0.9 | 0.7 | i | -6.8 | . | 1.5
CN(C(=O)c1ccc(N2CCOCC2)c([N+](=O)[O-])c1)C1CCCCC1 | 6 | -12 | -7 | -2.9 | -0.4 | 0.63 | i | -1.0 | 1 | 2.6
CCOC(=O)c1sc(NC(=O)CSCc2c(C)noc2C)nc1C | . | -12 | -10 | 1.3 | -0.2 | 0.63 | i | -0.9 | 4 | -1.2
O=C(N/N=C/c1ccco1)c1cc(-c2ccc(Br)s2)[nH]n1 | 8 | 0 | 5 | 20 | 1.2 | . | i | . | -3 | .
C/C(=N\NC(=O)c1cccc(S(=O)(=O)N2CCOCC2)c1)c1cc2ccccc2o1 | -5 | 0 | 3 | 6.6 | -0.6 | . | i | 2.6 | 7 | .
Cc1[nH]nc(Nc2ccc(Br)cc2)c1[N+](=O)[O-] | 10 | 4 | 4 | -2.6 | 0.1 | 0.62 | i | 0.7 | 14 | 3.0
CCS(=O)(=O)n1nc(-c2ccco2)nc1SC | -3 | . | . | . | -0.4 | 0.66 | . | . | -5 | 1.6
O=C(NCC1CCCO1)C1c2ccccc2C(=O)N1C1CCCCCCC1 (centres undefined) | -11 | . | . | . | 0.7 | 0.72 | . | . | -8 | -0.3
O=C(NCc1ccccc1)Nc1cc(Cl)ccc1Cl | -12 | 6 | 2 | -0.4 | 0.1 | 0.76 | i | -4.3 | -3 | 0.2
COc1ccc(Oc2c(C)oc3c(CN(C)C)c(O)ccc3c2=O)cc1 | 9 | . | . | . | 1.1 | 0.74 | . | . | 2 | -352
CCn1c2ccccc2c2cc(NC(=O)C(=O)N3CCOCC3)ccc21 | 0 | -24 | -26 | -7.2 | -0.3 | . | . | 1.8 | -3 | -32
CCc1ccc2c(c1)C(NC(C)=O)C(=O)N2CC (centres undefined) | -24 | 10 | 14 | -0.2 | 0.1 | 0.75 | i | -0.2 | -5 | 8.1
CC(Oc1ccc(Cl)cc1)c1ccnn1S(C)(=O)=O (centres undefined) | 2 | . | . | . | 2.5 | 0.7 | . | . | -1 | 2.7
Cn1cc(Br)c(C(=O)Nc2sc3c(c2C#N)CCC3)n1 | 27 | 1 | 4 | 5.0 | -1.3 | 0.69 | i | -0.6 | -4 | -94
Cc1c2c(c(C)n1C)C(C(=O)NC1CCCCC1)N(Cc1ccccc1)C2=O (centres undefined) | 1 | -3 | -9 | -3.0 | -0.5 | 0.69 | i | 4.6 | -1 | -1.4
Cc1nnc(SCC(=O)N2CC(=O)Nc3ccccc32)s1 | 2 | 9 | 7 | -6.7 | 0.5 | 0.67 | i | -1.7 | 0 | -1.7
COc1ccc(C(=O)/C=C/Nc2ccc(S(=O)(=O)Nc3nc(C)cc(C)n3)cc2)c(OC)c1 | -8 | -5 | 3 | -1.9 | -1.0 | 0.63 | i | -4.7 | -3 | -27
CC(NC(=O)CNC(=O)c1ccc2c(c1)OCO2)c1ccc(S(N)(=O)=O)cc1 (centres undefined) | . | 26 | 17 | 0.1 | 2.4 | 0.72 | i | -5.5 | 2 | 3.6

Only part of the results is shown; count on the stated rates, not on these rows.
